Screening results deposited in PubChem BioAssay by ICCB-Longwood Screening Facility, Harvard Medical School.
Ab BasE inh = inhibitors of Acinetobacter baumannii siderophore enzyme BasE | 84,000 tested, 0.1% active | inhibition, % (test concentration not listed) | purified BasE, fluorescence polarization binding displacement;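 active means both replicates above 25% with normal brightness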;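 further: 0% = negative plate control signal and 100% = positive plate control signal; stock transfer was 100 nL into about 30 µL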
LANA-nucl inh = LANA-nucleosome interaction inhibition; FITC-LANA1-23 / chicken nucleosome fluorescence polarization; active compounds read low; z-score (concentration not given with the values); 51,000 tested, 0.3% active; AID 720717;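 active means both repeat wells score below -2 in polarization z-score versus plate sample wells, excluding overly bright wells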;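 further: 100 nL library stock added to about 30 µL; numbers are from one replicate; some results filed as inactive read as strong as hits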
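Material: Purified chicken nucleosomes with FITC-labelled LANA N-terminal peptide (1-23) | Reagent: 50 nM FITC-LANA1-23 probe | Medium: TEN-BT buffer, pH 7.5 | Times: 10–45 min incubation at room temperature | Detection: Fluorescence polarization | Replication: Duplicates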
Numbers without * were called inactive; . = not tested or not shown. Not all compounds are listed; the hit share may differ from the screen's.

Molecule | Ab BasE inh | LANA-nucl inh
CC(=O)NCc1ccc(C(=O)CSc2nnc(-c3ccoc3C)n2C)s1 | 3.6 | .
CCOC(=O)C1=C(c2ccccc2)NC(=O)NC1c1ccc(OC)c(OC)c1 (configuration not stated) | 1.9 | 0.69
N#Cc1cccc(C(=O)NCC(F)(F)F)c1 | 1.7 | .
CCC1(c2ccccc2)NC(=O)NC1=O (configuration not stated) | 2.1 | -1.8
CC(NS(=O)(=O)c1ccccc1)c1ccccc1 (configuration not stated) | -3.1 | 0.1
COc1ccc(C(=O)NCc2c(-c3ccccc3)noc2C)cc1 | 1.5 | .
Nc1cc(=O)[nH]c(SCC(=O)N2CCc3ccccc32)n1 | -0.2 | -0.7
O=C1CC(CSc2nnnn2-c2ccccc2)=NN1 | 0.3 | -0.72
Nc1cccc(NC(=O)c2ccccc2)c1 | -1.5 | 0.8
Cc1[nH]c2ccccc2c1C(=O)CN1CC(C)OC(C)C1 (configuration not stated) | 0.1 | .
N#CC(c1ccccc1)C12CC3CC(CC(C3)C1)C2 (configuration not stated) | -1.4 | .
O=C(/C=C/Nc1ccccc1)C(F)(F)F | 1.2 | .
Cc1cccc(OCCOC(=O)c2ccccc2O)c1 | 1.5 | .
CCCn1c(C)cc(C(=O)CSc2ncn[nH]2)c1C | -1.3 | .
CS(=O)(=NS(=O)(=O)c1cccs1)c1ccc(OC(=O)c2ccc(Cl)cc2)cc1 (configuration not stated) | 1.0 | .
COc1cc2c(cc1OC)C(c1cc3cc4c(cc3[nH]c1=O)OCO4)N(C(=O)C1CCC1)CC2 (configuration not stated) | -3.9 | 0.59
N#Cc1nc(-c2ccccc2)oc1N1CCN(C(c2ccccc2)c2ccccc2)CC1 | -4.8 | .
COc1ccc(-c2csc(C(C#N)=C3CCCC3)n2)cc1 | -12 | -0.58
Cc1ccc(-n2c(N)c(C(=O)NCC(C)C)c3nc4ccccc4nc32)cc1 | 3.1 | .
C=C1c2ccccc2NC(=S)N1c1ccc(OC)cc1 | -0.3 | .

In the list so far, 2 have fluorine:
Molecule | Ab BasE inh | LANA-nucl inh
N#Cc1cccc(C(=O)NCC(F)(F)F)c1 | 1.7 | .
O=C(/C=C/Nc1ccccc1)C(F)(F)F | 1.2 | .

Continued:
Molecule | Ab BasE inh | LANA-nucl inh
CCOc1ccc(C(=S)N2CCN(C)CC2)cc1 | 0.5 | 0.72
N#C/C(=C\c1ccc[nH]1)C(=O)N1CCc2ccccc2C1 | 8.5 | 0.54
O=C1NC(c2ccc(O)cc2)C(C(=O)c2ccccc2)C(O)(C(F)(F)F)N1 (configuration not stated) | 0.5 | .
CC(=O)Nc1cccc(C(=O)Nc2ccc(N3CCCCC3)cc2)c1 | 0.9 | .
O=C1OCCC1Oc1ncnc2ccccc12 (configuration not stated) | -1.4 | .
Cc1noc(C)c1COc1ccc(CC(=O)NC2CCCc3ccccc32)cc1 (configuration not stated) | 0.4 | .
Cc1ccc2[nH]cc(C(=O)N3CCCCC3)c(=O)c2c1 | 1.5 | -0.17
COC(=O)c1ccc(CNC(=O)Cn2cnnn2)cc1 | 0.6 | .
O=C(c1ccc2c(c1)sc1nc(-c3ccccc3)cn12)N1CCN(C(=O)c2ccco2)CC1 | -5.3 | 0.034
O=C1N/C(=N\Nc2ccccc2)S/C1=C\c1ccccc1 | -12 | 1.2
OCC(O)/C=N/Nc1nc2ccccc2s1 (configuration not stated) | -0.5 | 0.25
CCC(Oc1ccccc1C)C(=O)O (configuration not stated) | -0.8 | -0.34
Cc1ccc(Cl)cc1NC(=S)N(N)CCO | 3.3 | .
CN1CCC(n2nccc2NC(=O)c2cccnc2Sc2ccccc2)CC1 | 1.1 | .
CC1(C)C(=O)NC(=O)N1CN1C(=O)NC(=O)C1(C)C | 2.0 | -0.34
CCOc1ccc(NC(=O)CN2C(=O)CS/C2=C\C#N)cc1 | 0.1 | .
CCC(C)c1ccc(NC(=O)C2CC(=O)N(c3ccc(C)cc3)C2)cc1 (configuration not stated) | 0.1 | .
CC(C)NS(=O)(=O)c1ccc(OCC(=O)N2CCCCC2)cc1 | 1.7 | -0.56
COc1cc(C(=O)N2C3=C(CCCC3)C(=O)NC23CCCCC3)cc(OC)c1OC | -0.7 | 0.7
Cc1cc2nc(NCCCN3CCCC3=O)c3ccccc3n2n1 | -0.5 | .
CCOC(=O)/C(C#N)=C\c1ccccc1N1CCN(C)CC1 | -0.2 | -0.55
NC(=O)COc1ccc(S(=O)(=O)N2CCCCC2)cc1 | 0.7 | 0.53
CCCn1nc(C(=O)NCCN2CCOCC2)c2ccccc2c1=O | -0.1 | .
CC(C)=CCCC1=CCC(/C=N/NC(N)=O)C(C)C1 (configuration not stated) | -0.2 | -0.12
CS(=O)(=O)Nc1ccc2[nH]c(=O)c(=O)[nH]c2c1 | 2.7 | 0.085
O=C(CSc1ncn[nH]1)N1CCOCC1 | 1.3 | -0.23
C=CCn1c(=N)c(C(=O)NCC2CCCO2)cc2c(=O)n3cccc(C)c3nc21 (configuration not stated) | -1.2 | 0.85
O=C(NC1CCCC1)c1cccc2c1C(=O)N(C1CCCCC1)C2 | 1.6 | -0.71
O=C(O)C1C2C=CC(C2)C1C(=O)Nc1cccc(Br)c1 (configuration not stated) | 2.1 | 0.28
CCSc1nnc(CCNC(=O)Nc2ccc(Cl)cc2C(F)(F)F)n1C | 0.8 | 0.098
NC(=O)C1CCN(C(=O)c2ccc3c(c2)S(=O)(=O)c2ccccc2C3=O)CC1 | 1.3 | .
O=C(CNC(=O)C1CCCCC1)Nc1ccc(S(=O)(=O)NCc2ccco2)cc1 | 0.0 | .
Nc1nc(COC(=O)C2CCN(S(=O)(=O)c3c(Cl)cccc3Cl)CC2)nc(Nc2ccccc2)n1 | -0.7 | .
CCCC1C2CN(C(C)C)CC=C2C(C#N)=C(N)C1(C#N)C#N (configuration not stated) | 12 | -2.2
COC(=O)c1ccc(Oc2nc(OC)nc(N(C)C)n2)cc1 | 1.9 | .
CN(Cc1ccc(C(C)(C)C)cc1)Cc1cccc2ccccc12 | . | 0.53
Nc1ccccc1C(=O)NCC(=O)O | 2.9 | .
COc1cc(CCC(O)c2ccc(C)cc2)cc(OC)c1OC (configuration not stated) | . | -0.75
COc1ccc(C(=O)C2=NN(C(C)=O)CC2c2ccco2)cc1 (configuration not stated) | 1.4 | 0.55
NC(=O)/C(=N\OC(=O)c1ccco1)c1nc(-c2ccc(Br)cc2)cs1 | 2.1 | .

Arranged by count of non-hydrogen atoms (highest first): six of the compounds above
Molecule | Ab BasE inh | LANA-nucl inh
NC(=O)C1CCN(C(=O)c2ccc3c(c2)S(=O)(=O)c2ccccc2C3=O)CC1 | 1.3 | .
CCSc1nnc(CCNC(=O)Nc2ccc(Cl)cc2C(F)(F)F)n1C | 0.8 | 0.098
COc1cc(CCC(O)c2ccc(C)cc2)cc(OC)c1OC (configuration not stated) | . | -0.75
COC(=O)c1ccc(Oc2nc(OC)nc(N(C)C)n2)cc1 | 1.9 | .
CS(=O)(=O)Nc1ccc2[nH]c(=O)c(=O)[nH]c2c1 | 2.7 | 0.085
Nc1ccccc1C(=O)NCC(=O)O | 2.9 | .

The list continues.
Molecule | Ab BasE inh | LANA-nucl inh
O=C(CO)Nc1ccc2c(c1)OCCO2 | 0.3 | .
O=c1[nH]cc(S(=O)(=O)Nc2ccccc2)c(=O)[nH]1 | -0.5 | -0.54
N#CCC1CCCO1 (configuration not stated) | -1.1 | .
CCc1ccc(C(=O)N2CCCC2)s1 | 3.4 | -0.48
CC(C)CNCC(=O)N(C1CCCCC1)C1CCCCC1 | 0.2 | -0.38
O=C1CC[C@@H](C(=O)N2CSC[C@H]2C(=O)O)N1 | . | -0.069
Cc1ccc(C)c(NC(=O)C23CC4CC(CC(O)(C4)C2)C3)c1 | 1.0 | .
C=CCn1c(C)nnc1SCC(=O)NCC12CC3CC(CC(C3)C1)C2 | 0.2 | .
Cc1cc(C(=O)Nc2ccc3c(c2)-c2ccccc2C3)no1 | 2.7 | .
OC(Cc1ccccc1)(c1ccccc1)c1ccccc1N=Cc1ccc2c(c1)OCO2 (configuration not stated) | 1.2 | .
O=C(NCC1CCCCC1)c1ccc(F)c(S(=O)(=O)N2CCOCC2)c1 | 3.0 | .
CCCCC1(CC(=O)N2CCCCC2)C(=O)N(c2ccccc2)N(c2ccccc2)C1=O | 2.8 | -0.53
CON(C)S(=O)(=O)c1cc(C(=O)OC(C)C(=O)Nc2ccc(N3CCOCC3)cc2)ccc1Cl (configuration not stated) | -3.9 | .
COCCNC(=O)c1ccc(CS(=O)c2cccc(C)c2)o1 (configuration not stated) | 0.2 | 0.19
CCNc1nc(NCC)nc(SCCOc2ccc(Br)cc2)n1 | 0.5 | .
CCOC(=O)c1c(S(=O)(=O)N2CCCC2)c(C)n(C)c1C | 0.3 | .
O=C1NNC(SCc2ccc(Br)cc2)=Nc2ccccc21 | 2.6 | .
CCCCC[C@H](O)/C=C/[C@@H]1[C@H]2C/C(=C/CCCC(=O)O)O[C@H]2C[C@H]1O | -1.0 | -0.45
Cc1csc(=Nc2ccc(S(=O)(=O)N3CCOCC3)cc2)n1Cc1ccco1 | -0.9 | .
C=CCSc1nnc(NC(=O)c2cn(-c3ccccc3)nc2-c2ccccc2)s1 | 1.0 | .

(further entries)
Compound	Ab BasE inh	LANA-nucl inh
COc1ccc(CNC(C(=O)NC(N)=O)C(C)C)cc1OC (configuration not stated)	-4.0	.
CCOC(=O)N1c2ccccc2CC1C (configuration not stated)	0.6	-0.76
CCOCc1cc(C)[nH]n1	0.2	-1.5
COc1cccc(CN(C)C(=O)c2ccc3ccccc3n2)c1OC	-0.6	.
O=C(c1ccco1)N1CCN(c2c3c(nc4nncn24)CCC3)CC1	-0.9	-0.29
FC(F)(F)c1cc(-c2ccccc2)nc(NCC2CCCO2)n1 (configuration not stated)	2.4	-1.7
COc1ccc(CC(=O)Nc2cccc(-c3nnc(-c4ccco4)o3)c2)cc1	1.6	.
CCc1ccc(NC(=O)CSc2nc(=O)n(CCN3CCOCC3)c3c2CCC3)cc1	1.7	-1.6
COCCNC(=S)N1CCC(NC(C)=O)CC1	-0.1	0.82
CC(C)(C)C(=O)C(O)C(C)(C)C (configuration not stated)	-1.8	0.067
NC(=S)c1cc2ccc(O)cc2oc1=O	0.0	0.65
O=C(Cn1cnc2sc(-c3ccccc3)cc2c1=O)c1cccs1	.	0.78
COc1ccc(NC(=O)CCc2c(C)noc2C)cn1	1.0	.
CCNS(=O)(=O)c1ccc(NC(=O)c2cncc(Br)c2)cc1	2.5	-0.42
Sc1ccc2c(c1)OCCCO2	-3.1	.
Cc1cccc(N(C(=O)c2cnc3n(c2=O)CCS3)C2CCCCC2)c1	0.1	-0.97
COc1ccc(Nc2nc(SC)nc(-c3ccccc3)c2C#N)cc1OC	-0.1	-1.3
O=C(c1nn(-c2ccccc2)c(=O)c2ccccc12)N1CCN(c2ccccc2)CC1	-1.2	.
CC1(C)C=C2C(=NN(c3ccccc3)C(N)=C2C#N)CO1	0.9	-0.62
CN(C)c1cccc(C(=O)NC2CCCc3ccccc32)c1 (configuration not stated)	1.2	.
CCN1CCCC1CNC(=S)Nc1cccc(C)c1 (configuration not stated)	0.2	.
NC(=O)C1CCN(c2ccnc3cc(Cl)ccc23)CC1	0.1	.
CC(C)CNS(=O)(=O)c1cc(C(=O)O)c(Cl)cc1Cl	-1.0	.
O=C1C(=Cc2cn(CC(=O)N3CCOCC3)c3ccccc23)C(=O)c2ccccc21	2.5	0.48
Cn1c(SCCN2CCCC2)nnc1C1CCN(S(=O)(=O)c2cccc(F)c2)CC1	1.7	-0.36
Cc1ccccc1Cn1c2ccccc2c2cnn(CC(=O)NC(C)C)c(=O)c21	3.6	-0.65
Cc1cc(NC(=O)CCCCCN2CCOCC2)no1	1.6	-0.13
COc1ccccc1NC(=O)C1CCCC1	2.1	.
O=C(CCN(/N=C/c1ccco1)C1=NS(=O)(=O)c2ccccc21)NC1CCCCC1	0.9	2.1
CCN(CC)S(=O)(=O)c1ccc2c(c1)c(=O)c(C(=O)N1CCCC1)cn2C	0.7	1.1
O=C(CC12CC3CC(CC(C3)C1)C2)Nc1ccc(-c2nc3ncccc3o2)cc1	-0.5	-1.3
CCNC(=O)N(C)Cc1nc(-c2ccc(OC)cc2)no1	-2.7	-0.28
CCN1C(=O)c2ccc(C(=O)Nc3ccc(C(=O)O)cc3)cc2C1=O	4.4	-0.43
CC(C)C1Cc2c(sc3nc(SCc4ccc(Cl)c(Cl)c4)nc(N)c23)CO1 (configuration not stated)	1.0	.
CCCS(=O)(=O)c1nc2ccccc2n1CCN1CCOCC1	1.2	0.58
OC(CNc1nc(C(F)(F)F)nc2ccccc12)c1ccccc1 (configuration not stated)	0.5	.
CC(Sc1nc(N)nc(N)n1)C(=O)NC1(C#N)CCCCC1 (configuration not stated)	0.4	.
COCN(C#N)c1nc(OC)nc(OC)n1	-3.0	2.5
CC(C)N(c1ccccc1)c1ccc(NC(=S)NCCN(C)C)cc1	1.2	.
CCOC(=O)c1oc2c(O)c(O)ccc2c(=O)c1-c1nncn1-c1ccccc1	7.9	-0.93
